Screening data from PubChem BioAssay.
StopGo RLuc: FMDV 2A StopGo reporter, Renilla signal; HEK cells with a luciferase reporter of 2A StopGo recoding; Potency, µM (highest dose often 57.5 µM), for the others: top-dose signal change, negative = less light; actives 0.32% (n = 120,000); active means well fitted falling curve with a large enough effect; inconclusive means small, poorly fitted or top-dose-only effect; inactive means no such curve, though single readings can be large or run the other way; note: nearly all actives have a fitted effect of over 55% in size; overnight with compound
StopGo FLuc: lowers the firefly signal of an FMDV 2A StopGo reporter | Potency, µM (titrated, usually from 57.5 µM), without a hit: at the highest dose signal change, negative = less light | AID 1745856 | HEK cells with a luciferase reporter of 2A StopGo recoding | actives 0.23% (n = 120,000); active = well fitted falling curve with a large enough effect; inconclusive = small, poorly fitted or top-dose-only effect; inactive = no such curve, though single readings can be large or run the other way; note: nearly all actives have a fitted effect of over 60% in size; overnight with compound
Numbers without * were called inactive; ? = inconclusive; & = joins results of further samples; [ ] = dose if it differs, or a comment. % is set by controls: 0 for no effect and ±100 for the full control effect; potency is the fitted concentration of half-maximal effect. Not a hit list (roughly 0.53% active in at least one column).

SMILES	StopGo RLuc	StopGo FLuc
COc1ccccc1CNC(=O)COc1ccc2c(C)cc(=O)oc2c1	17%	6%
COc1cc(C)ccc1OCCOc1ccc(C)cc1I	14%	10%
CCOc1nc2ccccc2nc1N1CCC(C(=O)NCc2cccc(C)c2)CC1	-10%	-7%
CC(Oc1c(Cl)cccc1Cl)C(=O)NN (stereo not given)	27%	12%
Oc1ccc(CCNC(=S)Nc2ccc(F)cc2)cc1	0%	0%
Cc1cc(C)n(-c2nc3ccccc3nc2N2CCNCC2)n1	-11%	61%[activator]
COC(=O)[C@H]1C[C@@]2(c3ccccc3)c3ccccc3N(S(=O)(=O)c3ccccc3)[C@H]2N1	?	-7%
COc1cccc(-n2ccnc2SCC(=O)Nc2ccc(Cl)c(Cl)c2)c1	-1%	-11%
COc1cccc(NC(=O)Cn2c(=O)n(-c3ccccc3)c(=O)c3c2c2cc(OC)ccc2n3C)c1	-11%	0%
CC(C)c1ccc(NC(=O)CSc2nc3ncccc3[nH]2)cc1	?	?
CCc1ccc2oc(C(=O)Nc3ccccc3C(=O)OC)cc(=O)c2c1	-5%	-15%
O=C(CCC1CCCC1)NC1CCCc2ccccc21 (stereo not given)	139%[activator]	52%[activator]
Cc1ccccc1OCCSc1nnc(-c2cccs2)o1	-1%	0%
Cc1cc(C)cc(OCC(=O)NCC(c2ccc(Cl)cc2)N2CCCCC2)c1 (stereo not given)	-9%	-11%
COc1ccc(NC(=O)C(C)Sc2ncnc3nc[nH]c23)cc1OC (stereo not given)	-3%	6%
CCOC(=O)CSc1nc2ccccc2c(=O)n1-c1ccc(C(=O)NCCOC)cc1	-8%	-12%
O=C(C1COc2cc(S(=O)(=O)NCCc3ccc(Cl)cc3)ccc2O1)N1CCCCC1 (stereo not given)	130%[activator]	-11%
CC(C)CCNC(=O)CCCN1C(=O)c2ccccc2Sc2ncccc21	0%	-12%
CCOc1ccc(CCNS(=O)(=O)c2c(C)nc3scc(C)n3c2=O)cc1OCC	22%	-14%
CCOC(=O)Cc1c(C)nc2c(-c3ccc(OC)c(OC)c3)c(C)nn2c1C	9%	-1%

Exported as a markdown table: entries from further up
| molecule | StopGo RLuc | StopGo FLuc |
| --- | --- | --- |
| CCc1ccc2oc(C(=O)Nc3ccccc3C(=O)OC)cc(=O)c2c1 | -5% | -15% |
| O=C(CCC1CCCC1)NC1CCCc2ccccc21 (stereo not given) | 139%[activator] | 52%[activator] |
| Cc1ccccc1OCCSc1nnc(-c2cccs2)o1 | -1% | 0% |
| Cc1cc(C)cc(OCC(=O)NCC(c2ccc(Cl)cc2)N2CCCCC2)c1 (stereo not given) | -9% | -11% |

Next results follow:
SMILES	StopGo RLuc	StopGo FLuc
CN1C(=O)C2(c3ccccc31)N(c1ccc(F)c(Cl)c1)C(=O)CS2(=O)=O (stereo not given)	-27%	0%
CC(=O)c1ccc(NC(=S)NCCSc2ccc(Cl)cc2)cc1	42%[activator]	6%
NNC(=S)Nc1cccc(Br)c1	3%	22%
CCCCc1nn2c(=O)cc(COC(=O)COc3ccccc3Cl)nc2s1	-10%	-7%
Cc1ccc(S(=O)(=O)C(CNC(=O)c2c(F)cccc2F)c2ccco2)cc1 (stereo not given)	0%	56%[activator]
CCOc1ccc(Nc2cc(C)c3ccccc3n2)cc1	11%	189%[activator]
Cc1cccc(Oc2ccc3[nH]c(C(=O)NCc4ccco4)cc3c2)c1	0%	14%
Cc1cc(Br)ccc1NC(=O)c1ccc(=O)n(CCOc2ccccc2)n1	6%	3%
COc1ccc(CNC(=O)C(C)Sc2nc3cc(Cl)ccc3n2C)cc1 (stereo not given)	20%	21%
CC(Sc1nnc(COc2ccc(Cl)cc2)n1C)C(=O)c1ccc(Cl)cc1 (stereo not given)	-29%	?
O=C(OC1CCCCC1=O)c1ccccc1I (stereo not given)	4%	7%
Cc1ccc(C(=O)NCCc2ccccc2)cn1	18%	0%
Cc1ccc(C)c(NC(=O)CSc2ccc(N3CCC(C(=O)N4CCCCC4)CC3)nn2)c1	?	?
CN(CC(=O)Nc1ccccc1C(F)(F)F)C1CCc2ccccc21 (stereo not given)	16%	0%
Cc1cc(C)c(NC(=O)c2ccc(CSc3ccc(Cl)cc3)cc2)c(C)c1	9%	10%
Cc1cccc(C(=O)Nc2c(N3CCCC3)c3ccccc3oc2=O)c1	0%	123%[activator]
Cc1nc(NC(=O)C(C)Sc2nnc(-c3ccccc3F)n2CC(C)C)sc1C (stereo not given)	12%	-18%
COc1ccc(OCCCNCCc2ccccc2)cc1	?	0%
COc1cccc2cc(C(=O)N(C)CCOc3ccc(F)cc3)c(=O)oc12	24%	84%[activator]
CCCOC(=O)c1ccc(NC(=O)NC(c2ccccc2F)c2nccn2C)cc1 (stereo not given)	2%	21%
CCCOc1ccc(C2c3c(oc4ccccc4c3=O)C(=O)N2c2nnc(C(C)C)s2)cc1 (stereo not given)	-10%	-11%
Cc1cccc(C)c1OCC(=O)NCC1(N(C)C)CCCCC1	-6%	-23%
CCOc1ccccc1NC(=O)N1CC(C)Oc2ccc(Cl)cc21 (stereo not given)	21%	0%
Cc1ccc(-c2ccc(/C=C(\C#N)c3nc4ccccc4[nH]3)o2)c(Br)c1	19%	30%
CCCCn1nnnc1CSc1nnc(-c2cccnc2)n1-c1ccc(C)cc1C	-9%	-6%
Cc1ccc(-n2ncc3c(NCCCn4ccnc4)ncnc32)cc1	-2%	84%[activator]
COC(=O)C1(N(C)c2ccccc2)CCN(Cc2ccccc2)CC1	8%	6%
Cc1ccc(C)c(NC(=O)c2nn(-c3ccccc3)c(=O)c3ccccc23)c1	-13%	-5%
CCCC(=O)NCCNC(=O)CC1CCCCC1	0%	-6%
CCCCCn1nc(C(=O)N2CCSCC2)c2ccccc2c1=O	15%	13%
COC(=O)c1cc(OC(=O)Cc2cccc3ccccc23)cc(C(=O)OC)c1	0%	-7%
COCCn1c(=O)c2c(nc(-n3nc(C)cc3C)n2Cc2ccc(OC)cc2)n(C)c1=O	5%	-1%
CC(C)c1ccc(NC(=O)COC(=O)c2cc(=O)c3ccccc3o2)cc1	-7%	38%[activator]
CCc1ccc(N(CC)C(=O)C(=O)c2c[nH]c3ccccc23)cc1	82%[activator]	30%
CCOc1ccc(CNC(=O)c2ccc3c(c2)c(C)c(C)n3Cc2ccc(Cl)cc2)cc1	10%	-4%
COc1cccc(NC(=O)CCc2ncc(-c3ccc(C)c(C)c3)o2)c1	-1%	-6%
CCCc1nnc(SCC(=O)Nc2ccccc2Cl)n1-n1cccc1	-7%	-8%
COc1cc(NC(=O)CC2C(=O)N(c3cccc(C)c3)C(=O)N2Cc2cccs2)cc(OC)c1 (stereo not given)	18%	-16%
COc1ccccc1-n1c(=O)c2sccc2n(CC(=O)NC(C)CCc2ccccc2)c1=O (stereo not given)	-3%	2%
Cc1ccc(CNC(=O)c2sc(C(C)C)nc2C)cc1	?	?
O=C(NCc1ccccc1)c1ccc(C2SCCS2)cc1	96%[activator]	28%
COc1cc2cc(C(=O)N3CCc4ccccc4C3)[nH]c2cc1OC	-5%	8%
CC(C)C(O)(CC#CCN1CCCC1)c1ccccc1 (stereo not given)	-2%	-9%
CCOC(=O)COc1ccc2c(C)c(CCC(C)C)c(=O)oc2c1	-5%	-2%
C/C=C/Cn1c(SCC(=O)OCc2ccccc2)nc2c1c(=O)[nH]c(=O)n2C	-13%	-11%
Cc1cc(-c2ccccc2)nc(SCc2ccc(C#N)cc2)n1	64%[activator]	39%[activator]
CCOCc1nnc(NC(=O)C2CC(=O)N(CCc3c[nH]c4ccc(OC)cc34)C2)s1 (stereo not given)	-1%	-1%
CC(=O)Nc1c(-c2cc(=O)oc3ccc(C(C)C)cc23)oc2ccccc12	0%	-4%
CCCCn1c(CN2CCN(c3ccc(OC)cc3)CC2)nc2c1c(=O)[nH]c(=O)n2C	-14%	?
CN(c1ccc2sc(C(=O)NC(C)(C)C)cc2c1)S(=O)(=O)c1ccc(Cl)cc1	5%	4%
COc1ccccc1C(NC(=O)c1oc2ccc(Br)cc2c1C)c1nccn1C (stereo not given)	-3%	1%
COC(=O)[C@H](CC(C)C)N(CCc1cn(CC2CCCCC2)nn1)S(=O)(=O)c1ccc(F)cc1Br	-8%	?
Cc1cccn2c(=O)cc(CSc3nnc(NC(=O)COc4ccccc4)s3)nc12	5%	14%
CN(C)S(=O)(=O)N(CC(=O)N1CCN(c2ccccc2F)CC1)c1ccccc1	6%	-3%
CC(c1ccc(F)cc1)n1c(-c2cnccn2)n[nH]c1=S (stereo not given)	-1%	5%
CCc1ccc(NCc2cccn2-c2nnc(N3CCCCCC3)s2)cc1	0%	0%
O=C(Nc1ccc(C(F)(F)F)cc1)c1cc(S(=O)(=O)NC2CCCCCC2)ccc1F	99%[activator]	-26%
Cc1ccccc1C(=O)Nc1ccc2oc(-c3ccccc3C)cc(=O)c2c1	17%	104%[activator]
COc1ccc(-c2noc(COc3ccc(Br)cc3C)n2)cc1OC	-10%	0%
COc1ccc(CN(C)Cc2ccco2)cc1F	1%	-4%

Looked up one by one from the entries so far (3):
SMILES	StopGo RLuc	StopGo FLuc
CC(c1ccc(F)cc1)n1c(-c2cnccn2)n[nH]c1=S (stereo not given)	-1%	5%
C/C=C/Cn1c(SCC(=O)OCc2ccccc2)nc2c1c(=O)[nH]c(=O)n2C	-13%	-11%
O=C(Nc1ccc(C(F)(F)F)cc1)c1cc(S(=O)(=O)NC2CCCCCC2)ccc1F	99%[activator]	-26%

Remaining list, next part
SMILES	StopGo RLuc	StopGo FLuc
O=C1CSc2ccc(C(=O)OCC(=O)NC3CCCc4ccccc43)cc2N1 (stereo not given)	-1%	-3%
COc1cccc(CSc2nc3n(n2)C(c2cccnc2)C(C(=O)Nc2ccccc2C)=C(C)N3)c1 (stereo not given)	-9%	-1%
COc1cccc(/C=C/C(=O)Nc2cccc(CO)c2)c1	18%	-2%
COc1ccc(-n2c(SCc3ccccc3)nc3c([nH]c4ccccc43)c2=O)cc1	?	?
COc1ccc(-c2cc(C(=O)O)c3ccc(C)c(C)c3n2)cc1OC	2%	14%
CCN(CC)S(=O)(=O)c1ccc(F)c(C(=O)NCC2COc3ccccc3O2)c1 (stereo not given)	53%[activator]	14%
Cc1ccc(C)c(Nc2nn3c(=O)c4ccc(C(=O)NCCC5=CCCCC5)cc4nc3s2)c1	-3%	-7%
COC(=O)C1CN(Cc2ccc(OC)cc2)CCS(=O)(=O)N1Cc1cn(Cc2ccc(F)cc2)nn1 (stereo not given)	7%	10%
COc1ccc(C(=O)CSc2nnc(Nc3ccccc3F)s2)c(OC)c1	49%[activator]	76%[activator]
Cn1c(=O)[nH]c(=O)c2c1nc(NCCc1ccccc1)n2Cc1ccc(F)cc1	-3%	-11%
CC(C(=O)NC(N)=O)N1CCN(c2ccccc2F)CC1 (stereo not given)	-5%	-4%
COc1cc(/C=C(/C#N)c2nc3ccc(C)cc3[nH]2)cc(OC)c1O	61%[activator]	283%[activator]
COC(=O)c1ccc(Cl)cc1NC(=O)N1CCC(CN2CCC(C)CC2)CC1	-10%	-18%
COc1ccc(NC(=O)Cn2nnc(C(=O)NCc3cccs3)c2N)cc1	1%	-2%
CN(CC(=O)NC(=O)NC1CC1)c1ccc(C(C)(C)C)cc1	?	-25%
CCCOc1ccc(C2C(=O)N(C3CCCCCC3)CC(=O)N2Cc2ccccc2OC)cc1OC (stereo not given)	39%&46%[activator]	-24%&6%
CC(C)CNC(=O)C1CCN(c2oc(-c3ccco3)nc2C#N)CC1	2%	2%
C=C1C[C@H]2[C@@H]3C=C(C)C4=CC(=O)CC[C@]4(C)[C@H]3CC[C@]2(C)[C@@]1(OC(C)=O)C(C)=O	?	?
COc1ccc(CCNC(=O)Nc2cccc(CN3CCOC3=O)c2)cc1OC	69%[activator]	0%
CCC(C(=O)Nc1nnc2n1CCS2)c1ccccc1 (stereo not given)	-9%	-13%

Single records, as listed above. Values in the order: StopGo RLuc	StopGo FLuc
C=C1C[C@H]2[C@@H]3C=C(C)C4=CC(=O)CC[C@]4(C)[C@H]3CC[C@]2(C)[C@@]1(OC(C)=O)C(C)=O in the list: ?	?
COc1ccc(NC(=O)Cn2nnc(C(=O)NCc3cccs3)c2N)cc1 in the list: 1%	-2%
CCN(CC)S(=O)(=O)c1ccc(F)c(C(=O)NCC2COc3ccccc3O2)c1 (stereo not given) in the list: 53%[activator]	14%
Cn1c(=O)[nH]c(=O)c2c1nc(NCCc1ccccc1)n2Cc1ccc(F)cc1 in the list: -3%	-11%

More results.
SMILES	StopGo RLuc	StopGo FLuc
CCOc1ccc(NC(=O)Cn2nnc(C(=O)NCc3cccs3)c2N)cc1	-7%	-16%
O=C1CCCC2=C1C1c3ccccc3C(=O)N1c1ccc(C(=O)c3ccccc3)cc1N2 (stereo not given)	33%[activator]	-5%
CC(=O)N1CCCc2cc(S(=O)(=O)Nc3ccc(OC(F)(F)F)cc3)ccc21	247%[activator]	8%
CCCCNC(=O)c1ccc2c(c1)NC(=O)C(C(C)C)N2 (stereo not given)	-8%	5%
CCc1cccc(CC)c1NC(=O)Cc1csc(C)n1	-2%	-25%

Among those listed so far, these have a cyano group.
SMILES	StopGo RLuc	StopGo FLuc
Cc1ccc(-c2ccc(/C=C(\C#N)c3nc4ccccc4[nH]3)o2)c(Br)c1	19%	30%
Cc1cc(-c2ccccc2)nc(SCc2ccc(C#N)cc2)n1	64%[activator]	39%[activator]
COc1cc(/C=C(/C#N)c2nc3ccc(C)cc3[nH]2)cc(OC)c1O	61%[activator]	283%[activator]
CC(C)CNC(=O)C1CCN(c2oc(-c3ccco3)nc2C#N)CC1	2%	2%
